FGF22 binding: binders of recombinant human FGF22 by thermal shift; calls only at 9.99 µM; SYPRO orange fluorescence; percent of sucrose octasulfate shift, DMSO zero; 340,000 compounds, 1.5% hits; Q9HCT0;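 active = melting point raised past a set limit in the mean and every replicate; three in four hits are not shown here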
Target sequence (Q9HCT0 whole entry, looked up): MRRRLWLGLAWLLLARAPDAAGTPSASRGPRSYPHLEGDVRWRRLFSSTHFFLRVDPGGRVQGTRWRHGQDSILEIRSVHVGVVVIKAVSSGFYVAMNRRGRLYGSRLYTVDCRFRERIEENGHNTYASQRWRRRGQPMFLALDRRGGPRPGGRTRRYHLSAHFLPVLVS
rRNA inh HTS: selective bacterial rRNA inhibition in E. coli | E. coli WT GFP vs humanized-ribosome RFP mutants, fluorescence, 24 h; stronger effect = lower value; DMSO median 0, no signal -100 | GFP signal change (wild-type ribosome), % (test concentration not listed) | 350,000 compounds, 1.6% hits | AID 720706;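 active = significant combined selectivity score with lowered wild-type GFP, culture density cut under 30%, mutant RFP and density less affected; inactive = any of these conditions unmet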; note: one replicate is shown; some compounds called inactive have numbers as strong as hits
rRNA inh HTS OD600: recorded beside rRNA inh HTS, whose call it bears; OD600 change, %; measured here: OD600 growth;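 optical density of the mix in the first replicate; 0 = DMSO median and -100 = no signal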
rRNA inh HTS RFP: recorded beside rRNA inh HTS, whose call it bears; RFP signal change, %; measured here: RFP humanized mutant strains;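 first replicate; 0 = DMSO median and -100 = no signal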
Active calls of the source: *; i = inactive. Only part of the results is shown, so the mix of outcomes need not match the whole.

Under each structure: FGF22 binding	rRNA inh HTS OD600	rRNA inh HTS RFP	rRNA inh HTS
> C[C@@H]1CN([C@@H](C)CO)C(=O)c2cccc(NC(=O)CCCCCC(=O)Nc3ccccc3N)c2O[C@@H]1CN(C)S(=O)(=O)c1ccc(Cl)cc1
    i	-4	2.2	-2
> C[C@H](CO)N1C[C@H](C)[C@H](CN(C)CC2CC2)Oc2c(NC(=O)c3ccc(-c4nccs4)cc3)cccc2C1=O
    i	4	-1.9	2
> O=C(C[C@H]1CC[C@@H](NC(=O)Cc2ccccn2)[C@@H](CO)O1)NCCc1ccncc1
    i	7	-2.2	2
> CO[C@H]1CN(C)C(=O)c2cc(NC(=O)c3ccc(F)cc3)ccc2OC[C@@H](C)N(C(C)=O)C[C@H]1C
    i	6	2.6	3
> CCCC(=O)Nc1ccc2c(c1)C(=O)N(C)[C@H]1CC[C@H](CC(=O)NCCN3CCCCC3)O[C@@H]1CO2
    i	5	-3.4	2
> CO[C@@H]1CN(C)C(=O)c2cc(NC(=O)c3cnccn3)ccc2OC[C@H](C)N(C(C)=O)C[C@@H]1C
    i	0	0.8	3
> CCCNC(=O)N(C)C[C@@H]1Oc2cc(-c3cncnc3)ccc2S(=O)(=O)N([C@@H](C)CO)C[C@H]1C
    i	5	-0.4	3
> Cc1noc(C)c1NC(=O)N(C)C[C@H]1Oc2ccc(NC(=O)CCCCCC(=O)Nc3ccccc3N)cc2C(=O)N([C@@H](C)CO)C[C@H]1C
    i	-3	-1.1	3
> Cc1ccc2nc(-c3cccc(Br)c3)c(Cc3cccc(F)c3)n2c1
    i	-46	-4.2	-32
> C[C@@H]1CN([C@@H](C)CO)C(=O)Cc2cc(NC(=O)Cc3cn(C)c4ccccc34)ccc2O[C@@H]1CN(C)Cc1ccc(Oc2ccccc2)cc1
    i	5	-1.1	4
> C[C@H](CO)N1C[C@H](C)[C@H](CN(C)C(=O)c2ccccc2)Oc2cc(C#CC3(O)CCCC3)ccc2S1(=O)=O
    i	-11	0.4	-2
> COc1ccccc1NC(=O)N[C@H]1C=C[C@@H](CC(=O)N[C@@H](C)c2ccccc2)O[C@@H]1CO
    i	0	-0.6	1
> C[C@H](CO)N1C[C@H](C)[C@@H](CN(C)S(=O)(=O)c2ccccc2F)Oc2cc(C#Cc3cccc(F)c3)ccc2S1(=O)=O
    i	4	0.6	7
> CO[C@@H]1CN(C)C(=O)c2cc(NS(=O)(=O)c3ccccc3)ccc2OC[C@H](C)N(C)C[C@@H]1C
    i	7	-0.6	0
> O=C(C[C@@H]1CC[C@H]2NC[C@@H](O)COC[C@@H]2O1)NC1Cc2ccccc2C1
    i	9	0.4	7
> O=C(C[C@H]1CC[C@H]2[C@@H](COC[C@H](O)CN2C(=O)c2ccncc2)O1)NCc1cccc(F)c1
    i	16	0.7	6
> COc1ccc(NC(=O)N2C[C@@H]3[C@H](c4ccccc42)[C@H](CO)N3C(=O)C2CCCCC2)cc1
    i	6	1.8	-1
> COC(=O)[C@@H]1[C@@H](CO)[C@@H]2Cn3c(ccc(-c4ccc(F)cc4)c3=O)[C@@H]2N1Cc1ccccn1
    i	1	2.3	-1
> C[C@@H]1CCCCO[C@@H](CN(C)C(=O)Cc2ccccc2)[C@H](C)CN([C@@H](C)CO)C(=O)c2cc(NS(=O)(=O)c3ccc(Cl)cc3)ccc2O1
    i	-2	-3.5	-1
> COc1ccc(NC(=O)Nc2cccc3c2O[C@@H](CN(C)S(=O)(=O)c2ccccc2)[C@H](C)CN([C@@H](C)CO)C3=O)cc1
    i	-12	-1.0	-5
> COc1cccc(NC(=O)C[C@H]2CC[C@@H]3[C@H](COc4ccc(NC(=O)C5CC5)cc4C(=O)N3C)O2)c1
    i	8	0.3	2
> CCCNC(=O)Nc1ccc2c(c1)OC[C@@H](C)N(C(=O)C1CC1)C[C@H](C)[C@H](OC)CN(C)C2=O
    i	-1	-1.0	1
> C[C@@H]1CN([C@@H](C)CO)S(=O)(=O)c2ccc(C3=CCCC3)cc2O[C@H]1CN(C)Cc1ccccc1F
    i	1	-0.7	4
> C[C@H]1CN([C@@H](C)CO)C(=O)c2cc(NS(=O)(=O)c3ccccc3)ccc2O[C@H]1CN(C)S(=O)(=O)c1ccccc1
    i	-15	4.7	-2
> C[C@@H]1CN([C@H](C)CO)C(=O)Cc2cc(NC(=O)Nc3ccc4c(c3)OCO4)ccc2O[C@@H]1CN(C)C(=O)NC1CCCCC1
    i	1	-0.2	2
> O=C(Nc1ccccc1)[C@H]1[C@H](CO)[C@H]2Cn3c(cccc3=O)[C@@H]1N2Cc1ccncc1
    i	4	-4.1	0
> O=C(C[C@H]1C=C[C@H](NS(=O)(=O)c2cccc(F)c2)[C@@H](CO)O1)NCc1ccc2c(c1)OCO2
    i	2	-0.5	4
> O=S(=O)(c1cccs1)N1CCCCN2[C@H](CO)[C@H](c3ccc(Br)cc3)[C@@H]2C1
    i	-70	-2.1	-46
> O=C(C[C@@H]1CC[C@@H]2[C@H](COC[C@@H](O)CN2C(=O)Nc2ccc(Cl)cc2)O1)NC1Cc2ccccc2C1
    i	-81	-19	-60
> CCCNC(=O)N(C)C[C@@H]1Oc2ncc(-c3ccncc3)cc2C(=O)N([C@@H](C)CO)C[C@H]1C
    i	1	-1.1	6

Overlap with the part before: six entries, then new ones.
Under each structure: FGF22 binding	rRNA inh HTS OD600	rRNA inh HTS RFP	rRNA inh HTS
> C[C@@H]1CN([C@H](C)CO)C(=O)Cc2cc(NC(=O)Nc3ccc4c(c3)OCO4)ccc2O[C@@H]1CN(C)C(=O)NC1CCCCC1
    i	1	-0.2	2
> O=C(Nc1ccccc1)[C@H]1[C@H](CO)[C@H]2Cn3c(cccc3=O)[C@@H]1N2Cc1ccncc1
    i	4	-4.1	0
> O=C(C[C@H]1C=C[C@H](NS(=O)(=O)c2cccc(F)c2)[C@@H](CO)O1)NCc1ccc2c(c1)OCO2
    i	2	-0.5	4
> O=S(=O)(c1cccs1)N1CCCCN2[C@H](CO)[C@H](c3ccc(Br)cc3)[C@@H]2C1
    i	-70	-2.1	-46
> O=C(C[C@@H]1CC[C@@H]2[C@H](COC[C@@H](O)CN2C(=O)Nc2ccc(Cl)cc2)O1)NC1Cc2ccccc2C1
    i	-81	-19	-60
> CCCNC(=O)N(C)C[C@@H]1Oc2ncc(-c3ccncc3)cc2C(=O)N([C@@H](C)CO)C[C@H]1C
    i	1	-1.1	6
> O=C(C[C@H]1CC[C@@H](NC(=O)c2ccncc2)[C@@H](CO)O1)Nc1ccccc1
    i	0	-2.6	3
> CO[C@H]1CN(C)C(=O)c2cc(NS(=O)(=O)CC(F)(F)F)ccc2OC[C@H](C)N(C(=O)NC(C)C)C[C@H]1C
    i	1	-2.5	0
> CO[C@@H]1CN(C)C(=O)c2cc(NS(=O)(=O)CC(F)(F)F)ccc2OC[C@@H](C)N(C(=O)NC(C)C)C[C@@H]1C
    i	4	-2.1	2
> CN(C)C(=O)c1cccc(-c2ccc3c(c2)[C@H]2[C@H](CCN2C(=O)Cc2ccccn2)[C@@H](CO)N3C)c1
    i	2	-4.2	-3
> C[C@@H]1CCCCO[C@@H](CN(C)S(=O)(=O)c2ccc(Cl)cc2)[C@H](C)CN([C@H](C)CO)C(=O)c2cc(NC(=O)Nc3ccccc3)ccc2O1
    i	15	2.8	8
> CC(=O)N1CC[C@@H]2[C@H]1c1cc(-c3ccc(C#N)cc3)ccc1N(C)[C@H]2CO
    i	-8	-1.7	-1
> O=C(CC1CC1)N1CC[C@H]2[C@H](CO)Nc3ccc(-c4ccccc4)cc3[C@H]21
    i	-11	-2.5	-7
> Cc1nn(C)cc1NC(=O)C[C@H]1CC[C@@H]2[C@@H](COc3ccc(NC(=O)C(C)C)cc3C(=O)N2C)O1
    i	20	1.6	-1
> N#C[C@H]1[C@H](c2ccc(C#Cc3cccc(F)c3)cc2)[C@@H](CO)N1C(=O)C1CCC1
    i	-10	2.9	-6
> C[C@H]1CN([C@@H](C)CO)C(=O)c2c(c3ccccc3n2C)-c2ccccc2CO[C@H]1CN(C)S(=O)(=O)c1ccc([N+](=O)[O-])cc1
    i	4	-0.5	1
> CNC[C@@H]1Oc2ccc(NC(=O)c3ccncc3)cc2CC(=O)N([C@H](C)CO)C[C@@H]1C
    i	3	-1.3	1
> C[C@H]1CN([C@@H](C)CO)C(=O)Cc2cc(NC(=O)NC3CCCCC3)ccc2O[C@@H]1CN(C)C
    i	0	-3.2	-2
> COCC(=O)N[C@@H]1C=C[C@H](CC(=O)NCc2ccc(Cl)cc2)O[C@H]1CO
    i	6	-1.5	2
> CCCN1C(=O)c2[nH]nc(-c3ccccc3)c2C1c1ccccc1 (stereo not drawn)
    i	-70	2.6	-38
> C[C@H]1CN([C@@H](C)CO)C(=O)c2cc(C#CC3CC3)cnc2O[C@H]1CN(C)C(=O)Nc1ccccc1
    i	9	1.1	2
> C[C@H]1CN([C@@H](C)CO)C(=O)c2cc(NS(=O)(=O)c3ccccc3)ccc2O[C@H]1CN(C)Cc1ccc(C(=O)O)cc1
    i	-6	-1.7	0
> COc1cccc(C#Cc2cnc3c(c2)C(=O)N([C@@H](C)CO)C[C@@H](C)[C@H](CN(C)C(=O)C2CCOCC2)O3)c1
    i	4	0.4	1
> O=C(C[C@H]1CC[C@@H](NC(=O)c2ccc3c(c2)OCO3)[C@H](CO)O1)NCc1ccc(Cl)cc1
    i	0	4.4	-4
> C[C@H](NC(=O)C[C@H]1CC[C@@H]2[C@H](COC[C@@H](O)CN2C(=O)Nc2ccccc2)O1)c1ccccc1
    i	14	-5.5	0
> C[C@H](CO)N1C[C@H](C)[C@H](CN(C)CC2CC2)Oc2ccc(NC(=O)C3CCCCC3)cc2C1=O
    i	9	-3.2	7
> CCCNC(=O)[C@H]1[C@H](CO)[C@H]2Cn3c(ccc(/C=C/c4ccccc4)c3=O)[C@@H]1N2C(=O)c1ccccc1
    i	-8	4.9	-4
> C[C@H]1CN([C@@H](C)CO)C(=O)Cc2cc(NS(=O)(=O)c3ccccc3)ccc2O[C@H]1CN(C)C(=O)Nc1cccc2ccccc12
    i	-6	0.3	0
> COCC(=O)N1C[C@H](C)[C@H](OC)CN(C)C(=O)c2ccc(NC(=O)c3ccc(F)cc3)cc2OC[C@H]1C
    i	6	0.6	0
> COc1cccc(C(=O)Nc2ccc3c(c2)C(=O)N(C)C[C@H](OC)[C@H](C)CN(CCc2ccccc2)[C@H](C)CO3)c1
    i	-3	6.7	0
> COCC#Cc1cnc2c(c1)C(=O)N([C@@H](C)CO)C[C@H](C)[C@@H](CN(C)Cc1ccc3c(c1)OCO3)O2
    i	7	-3.3	1
> COc1cccc(S(=O)(=O)N[C@H]2C=C[C@@H](CC(=O)NC3Cc4ccccc4C3)O[C@@H]2CO)c1
    i	-7	-1.5	-5
> O=C(Nc1ccccc1)Nc1ccc2c(c1)[C@@H]1C[C@@H](CC(=O)N3CCCCC3)O[C@@H](CO)[C@@H]1O2
    i	-8	-0.4	-3
> C[C@H](CO)N1C[C@H](C)[C@@H](CN(C)Cc2ccc(C(=O)O)cc2)Oc2ccc(NC(=O)CCC(F)(F)F)cc2CC1=O
    i	-7	-2.9	3
> Cc1ccc(S(=O)(=O)N(C)C[C@H]2Oc3c(NC(=O)NC4CCCCC4)cccc3C(=O)N([C@H](C)CO)C[C@@H]2C)cc1
    i	-5	0.1	-4
> C[C@@H]1CN([C@@H](C)CO)S(=O)(=O)c2ccc(-c3cccc(F)c3)cc2O[C@@H]1CN(C)CC1CC1
    i	6	-4.5	1
> Cc1noc(C)c1S(=O)(=O)Nc1ccc2c(c1)CC(=O)N([C@H](C)CO)C[C@@H](C)[C@@H](CN(C)C(=O)Nc1ccccc1)O2
    i	12	0.7	4
> CCC(=O)N(C)C[C@@H]1Oc2cc(C#Cc3ccccn3)ccc2S(=O)(=O)N([C@H](C)CO)C[C@@H]1C
    i	2	1.8	-1
> O=C(Nc1ccccc1F)N1C[C@H]2[C@@H](c3ccccc31)[C@@H](CO)N2C(=O)C1CC1
    i	5	-1.6	3
> CCC(=O)N1CC(=O)N2[C@H](CO)[C@H](c3ccc(-c4ccccc4C)cc3)[C@@H]2C1
    i	10	2.2	-3
> CO[C@@H]1CN(C)C(=O)c2cc(NC(=O)C3CCCCC3)ccc2OC[C@H](C)N(Cc2cccnc2)C[C@@H]1C
    i	-4	0.1	-5
> CCCNC(=O)N1C[C@@H](O)COC[C@@H]2O[C@H](CC(=O)N3CCOCC3)CC[C@H]21
    i	9	-4.4	1
> C[C@@H](NC(=O)C[C@H]1C=C[C@@H](NC(=O)C2CCC2)[C@@H](CO)O1)c1ccccc1
    i	11	-1.4	0
> Cc1cc(C(=O)Nc2ccc3c(c2)C(=O)N(C)[C@@H]2CC[C@H](CC(=O)O)O[C@H]2CO3)no1
    i	11	0.0	3
> C[C@H]1CN([C@@H](C)CO)C(=O)c2cc(NC(=O)Nc3ccc4c(c3)OCO4)ccc2O[C@@H]1CN(C)Cc1ccccc1
    i	15	1.0	9
> CCCN(C)C[C@H]1Oc2ncc(-c3ccccc3)cc2C(=O)N([C@H](C)CO)C[C@H]1C
    i	1	-3.2	-1
> C[C@@H]1CN([C@@H](C)CO)C(=O)c2cccc(NC(=O)NC3CCCCC3)c2O[C@@H]1CN(C)C(=O)Nc1cccc2ccccc12
    i	-10	0.4	-3

Bioassay records (PubChem)
